Sa ugtP lethal: growth inhibition of ugtP-null S. aureus, primary screen, RN4220 ugtP deletion, OD600 | 16 h; some inactives read as strong as hits | growth inhibition, % (concentration not given with the values) | hit rate 0.54% among 330,000 | AID 1259309, 2017;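 active = z-score under -3 and OD600 up to 0.15 on both plates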;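 note: plate controls were untreated wells for no effect and antibiotic for full effect; wells of about 80 µL received 100 nL stock; the first replicate is given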
BJeLR viability: MLPCN primary cell-based screen for lethality selective to Ras in HRASV12 cells | BJeLR (HRASV12) viability, CellTiter-Glo ATP luminescence, 48 h; reference of the scale not given here | inhibition, % (test concentration not listed) | hit rate 0.17% among 300,000 | AID 1554, 2009;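 active = replicate mean above 50%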;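 note: 50 nL library stock added to about 25 µL; numbers are from one replicate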
RN4220 kill: growth inhibition of S. aureus RN4220, primary screen, OD600; 16 h; inhibition, % (test concentration not listed); hit rate 0.33% among 330,000; AID 1259311, 2017;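 active = z-score of -3 or lower and OD600 up to 0.18 on both plates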;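 note: plate controls were untreated cells for no effect and reference antibiotic for full effect; stock transfer was 100 nL into about 80 µL; one replicate is shown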
PrP 5UTR inh: inhibition of PrP 5' UTR reporter expression. AID 488862, 2010. inhibition, % (test concentration not listed). hit rate 0.35% among 340,000. cell-based PrP 5' UTR mRNA reporter, plate reader;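 active = every replicate at 50% or more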;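 note: 0 = median of the neutral control wells; tested in H4 reporter cells; numbers are from one replicate; inactives centre near -14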
Autofluor counter: compound fluorescence in toxin protease inhibitor counterscreen; hit rate 3.1% among 360,000; compound autofluorescence counterscreen, microsphere flow cytometry; active compounds read high; fluorescence intensity (concentration not given with the values);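 active = at least 3 SD above the mean of all compounds, about 16000 in these data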;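 note: 100 nL of 1 mM stock went into each well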
Mtb hypoxia rep: PubChem AID 1159583 | M. tuberculosis hypoxia-regulated fluorescent reporter, fluorescence | fluorescence inhibition, % (concentration not given with the values) | hit rate 0.1% among 300,000;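 active = 35 to 45% if threefold the growth effect, above 45% if 1.5-fold the growth effect; inactive = the rest, general growth blockers included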;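 note: wells of about 50 µL received 100 nL stock; 0% = vehicle wells and 100% = reference inhibitor wells; whole bacteria with a GFP reporter of the hypoxia response; strong numbers were not always called active; many hits fall short of the cut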
Mtb hypoxia rep growth: also measured in Mtb hypoxia rep; calls as there; growth inhibition, %; measured here: M. tuberculosis growth (absorbance);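 0% = vehicle and 100% = reference antibiotic; read after six days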
The depositor's hits bear a star.

`CSc1cccc(NC(=O)CCc2ccccc2)c1` gave Sa ugtP lethal 0, BJeLR viability -4, RN4220 kill 2.0, PrP 5UTR inh -18, Autofluor counter 4184, Mtb hypoxia rep -6 and Mtb hypoxia rep growth 5.
For Cc1ccc(S(=O)(=O)CCC(=O)OCC(=O)NNC(=O)c2ccc([N+](=O)[O-])cc2)cc1 the results were Sa ugtP lethal 1, RN4220 kill 3.6, PrP 5UTR inh -17, Autofluor counter 4041, Mtb hypoxia rep 2 and Mtb hypoxia rep growth -2.
For CCCCOc1ccc(C(=O)NN=Cc2ccc(OCCN3CCCCC3)c(OC)c2)cc1 the results were Sa ugtP lethal 4, RN4220 kill -0.3, Mtb hypoxia rep 6 and Mtb hypoxia rep growth 2.
CCCC(C)C(=O)NCc1ccc2c(c1)OCO2 (stereo unspecified) was read as Sa ugtP lethal 10, BJeLR viability 3, RN4220 kill 0.9, PrP 5UTR inh -11 and Autofluor counter 4535.
`CC(NCC1(N2CCOCC2)CCCCC1)C(=O)Nc1ccc(Cl)cc1Cl` (stereo unspecified) gave Sa ugtP lethal 1, BJeLR viability 9, RN4220 kill 0.6, PrP 5UTR inh -6, Autofluor counter 3949, Mtb hypoxia rep 7 and Mtb hypoxia rep growth 2.
Screening O=C(O)c1ccccc1-n1c(-c2ccccc2)cc2c1CCCC2=O returned Sa ugtP lethal 4, BJeLR viability -6, RN4220 kill 5.7, PrP 5UTR inh -10 and Autofluor counter 2523.
For CCN(CC(=O)NCc1cccs1)C(=O)COc1ccc(C(C)=O)cc1 the results were Sa ugtP lethal 0, RN4220 kill -3.6, PrP 5UTR inh -24, Autofluor counter 4029, Mtb hypoxia rep -6 and Mtb hypoxia rep growth -2.
For Cc1ncc2c(c1OC(=O)c1ccccc1)COC(C)(C)OC2 the results were Sa ugtP lethal -1, BJeLR viability 6, RN4220 kill -0.7, PrP 5UTR inh -2, Autofluor counter 23118*, Mtb hypoxia rep 3 and Mtb hypoxia rep growth 16.
For Cc1c(C(=O)N2CCCCC2)c(S(=O)(=O)NCCc2ccc(S(N)(=O)=O)cc2)c(C)n1C the results were Sa ugtP lethal 3, BJeLR viability 2, RN4220 kill 1.7, PrP 5UTR inh -4, Autofluor counter 5862, Mtb hypoxia rep 10 and Mtb hypoxia rep growth 8.
For Brc1ccccc1-c1nnc(COc2ncnc3c2cnn3-c2ccccc2)o1 the results were Sa ugtP lethal 7, BJeLR viability 2, RN4220 kill -2.8, PrP 5UTR inh -15 and Autofluor counter 2399.
For Cc1cnc(NC(=O)C2CC(=O)N(c3cccc(Cl)c3)C2)s1 (stereo unspecified) the results were Sa ugtP lethal 0, BJeLR viability 14, RN4220 kill -0.8, PrP 5UTR inh -14, Autofluor counter 6370, Mtb hypoxia rep 3 and Mtb hypoxia rep growth 7.
`O=C(Nc1cc([N+](=O)[O-])ccc1Cl)c1cccnc1` gave Sa ugtP lethal 12, BJeLR viability -12, RN4220 kill -5.4, PrP 5UTR inh -20, Autofluor counter 3568, Mtb hypoxia rep -4 and Mtb hypoxia rep growth 9.
`Cc1ccc(-c2cc(C(=O)NCc3ccccn3)c3ccccc3n2)cc1` gave Sa ugtP lethal -4, BJeLR viability 14, RN4220 kill -1.4, PrP 5UTR inh 8, Autofluor counter 2609, Mtb hypoxia rep 3 and Mtb hypoxia rep growth 8.
Screening COc1cccc(C(=O)N2CCN(c3ccccn3)CC2)c1 returned Sa ugtP lethal 12, BJeLR viability -9, RN4220 kill 3.8, PrP 5UTR inh -48, Autofluor counter 3721, Mtb hypoxia rep 5 and Mtb hypoxia rep growth 8.
For Cc1cc(S(=O)(=O)NC(C)C)ccc1OCC(=O)N1CCN(Cc2ccc3c(c2)OCO3)CC1 the results were Sa ugtP lethal 14, BJeLR viability 5, RN4220 kill 7.7, PrP 5UTR inh -1, Autofluor counter 6991, Mtb hypoxia rep 7 and Mtb hypoxia rep growth -5.

Brought forward from above: 2 compounds, then new ones.
Screening COc1cccc(C(=O)N2CCN(c3ccccn3)CC2)c1 returned Sa ugtP lethal 12, BJeLR viability -9, RN4220 kill 3.8, PrP 5UTR inh -48, Autofluor counter 3721, Mtb hypoxia rep 5 and Mtb hypoxia rep growth 8.
For Cc1cc(S(=O)(=O)NC(C)C)ccc1OCC(=O)N1CCN(Cc2ccc3c(c2)OCO3)CC1 the results were Sa ugtP lethal 14, BJeLR viability 5, RN4220 kill 7.7, PrP 5UTR inh -1, Autofluor counter 6991, Mtb hypoxia rep 7 and Mtb hypoxia rep growth -5.
Screening CC(C)c1ccc(Nc2ccc(C(=O)O)cc2[N+](=O)[O-])cc1 returned Sa ugtP lethal 9, BJeLR viability 8, RN4220 kill 5.2, PrP 5UTR inh -7, Autofluor counter 2968, Mtb hypoxia rep 13 and Mtb hypoxia rep growth 6.
`O=c1c2c(nc3nc(SCc4ccccc4)[nH]n13)CCC2` gave Sa ugtP lethal 4, BJeLR viability -4, RN4220 kill -5.5, PrP 5UTR inh -13, Autofluor counter 10083, Mtb hypoxia rep -7 and Mtb hypoxia rep growth 10.
Screening CS(=O)(=O)N(CC(=O)Nc1cccc([N+](=O)[O-])c1)c1ccccc1F returned Sa ugtP lethal 1, BJeLR viability 2, RN4220 kill 2.4, PrP 5UTR inh -21, Autofluor counter 4564, Mtb hypoxia rep 6 and Mtb hypoxia rep growth -5.
For Cc1csc(SCC(=O)Nc2c(C)n(C)n(-c3ccccc3)c2=O)n1 the results were Sa ugtP lethal 3, BJeLR viability -6, RN4220 kill 0.5, PrP 5UTR inh -18 and Autofluor counter 2782.
`C=CCNc1oc(COc2ccc(C)cc2)nc1C#N` gave Sa ugtP lethal 2, BJeLR viability -2, RN4220 kill 1.0, PrP 5UTR inh 5 and Autofluor counter 5972.
`O=C(Nc1nc2c(Cl)cccc2s1)c1ccc(Br)o1` gave Sa ugtP lethal -18, BJeLR viability -22, RN4220 kill 9.6, PrP 5UTR inh -35, Autofluor counter 9804, Mtb hypoxia rep 0 and Mtb hypoxia rep growth 6.
CN(C)S(=O)(=O)c1ccc(C(=O)Nc2ccc(OCC(=O)N3CCOCC3)cc2)cc1 was read as Sa ugtP lethal -14, BJeLR viability -10, RN4220 kill 2.1, PrP 5UTR inh -24, Autofluor counter 2410, Mtb hypoxia rep 0 and Mtb hypoxia rep growth 11.
`CC(=NNC(=O)c1ccc2c(c1)OCO2)c1cccc([N+](=O)[O-])c1` gave Sa ugtP lethal -6, RN4220 kill -0.8, Mtb hypoxia rep -4 and Mtb hypoxia rep growth 0.
Screening CC(C)(C)c1ccc(/C=C2/SC(N3CCCC3)=NC2=O)cc1 returned Sa ugtP lethal 5, BJeLR viability 2, RN4220 kill 3.5, PrP 5UTR inh -5, Autofluor counter 5371, Mtb hypoxia rep 21 and Mtb hypoxia rep growth 20.
Cc1cccc(C)c1OCC(=O)N(Cc1cccs1)C1CCS(=O)(=O)C1 (stereo unspecified) was read as Sa ugtP lethal 7, BJeLR viability 1, RN4220 kill 3.4, PrP 5UTR inh -16, Mtb hypoxia rep 0 and Mtb hypoxia rep growth -2.
COc1ccc(/C=N\N2CCN(Cc3ccccc3Cl)CC2)cc1 was read as BJeLR viability 14, PrP 5UTR inh 22 and Autofluor counter 4268.
`COc1ccc(C=NNC(=O)CNC(=O)c2ccc3c(c2)OCCO3)c(C(=O)O)c1OC` gave Sa ugtP lethal 5, RN4220 kill 4.8, Mtb hypoxia rep 13 and Mtb hypoxia rep growth 2.
For CN(C)S(=O)(=O)c1cccc(C(=O)C2=C3SC=C(c4ccccc4)N3CC2)c1 the results were Sa ugtP lethal 1, BJeLR viability 0, RN4220 kill 2.6, PrP 5UTR inh -29 and Autofluor counter 4637.
`O=C(CSc1nnnn1-c1ccc(F)cc1)c1ccc(O)c(O)c1` gave Sa ugtP lethal -7, BJeLR viability 1, RN4220 kill 3.0, PrP 5UTR inh -20, Autofluor counter 4326, Mtb hypoxia rep 2 and Mtb hypoxia rep growth 5.
COCCSc1nnc(NS(=O)(=O)c2ccc(F)cc2)s1 was read as Sa ugtP lethal 0, BJeLR viability 6, RN4220 kill 1.3, PrP 5UTR inh -18, Autofluor counter 4481, Mtb hypoxia rep 10 and Mtb hypoxia rep growth -2.

Filtered by structure, those above with bromine.
For Brc1ccccc1-c1nnc(COc2ncnc3c2cnn3-c2ccccc2)o1 the results were Sa ugtP lethal 7, BJeLR viability 2, RN4220 kill -2.8, PrP 5UTR inh -15 and Autofluor counter 2399.
`O=C(Nc1nc2c(Cl)cccc2s1)c1ccc(Br)o1` gave Sa ugtP lethal -18, BJeLR viability -22, RN4220 kill 9.6, PrP 5UTR inh -35, Autofluor counter 9804, Mtb hypoxia rep 0 and Mtb hypoxia rep growth 6.

Following part
`O=C1NC(=O)C2(CCCCCCC2)N1` gave Sa ugtP lethal 2, RN4220 kill 1.2, PrP 5UTR inh -28, Autofluor counter 3915, Mtb hypoxia rep 2 and Mtb hypoxia rep growth 9.
O=[N+]([O-])c1ccc(-c2c(-c3ccccc3)ncc3ccc(F)cc23)cc1 was read as Sa ugtP lethal -25, RN4220 kill 6.7, PrP 5UTR inh 0, Autofluor counter 4156, Mtb hypoxia rep 5 and Mtb hypoxia rep growth 22.
Screening COc1ccc(/C=N/NC(=O)c2ccc(CN3c4cccc5cccc(c45)S3(=O)=O)cc2)cc1 returned BJeLR viability -7, PrP 5UTR inh -9 and Autofluor counter 2483.
CC(C)(O)C#Cc1ccccc1C(=O)NC(CC(N)=O)C(=O)O (stereo unspecified) was read as Sa ugtP lethal -1, BJeLR viability 2, RN4220 kill 0.9, PrP 5UTR inh -19 and Autofluor counter 2908.
COc1ccc(NC(=S)NC(NC(=O)c2cccc3ccccc23)C(Cl)(Cl)Cl)c([N+](=O)[O-])c1 (stereo unspecified) was read as Sa ugtP lethal -19, BJeLR viability -2, RN4220 kill -6.8, PrP 5UTR inh -17, Autofluor counter 8132, Mtb hypoxia rep 5 and Mtb hypoxia rep growth 3.
For COC(=O)Cc1c(C(=O)OC)nnn1-c1ccc(OC(F)(F)F)cc1 the results were Sa ugtP lethal 4, BJeLR viability -3, RN4220 kill 4.0, PrP 5UTR inh -11, Autofluor counter 2602, Mtb hypoxia rep -2 and Mtb hypoxia rep growth 2.
For CCN(CCCNC(=O)CCC(=O)N1CCOc2ccccc21)Cc1ccccc1 the results were Sa ugtP lethal 9, BJeLR viability 11, RN4220 kill -5.2, PrP 5UTR inh 3, Autofluor counter 5019, Mtb hypoxia rep 3 and Mtb hypoxia rep growth 1.
For CN1C(=C2C(=O)OC(C)(C)OC2=O)Sc2ccccc21 the results were Sa ugtP lethal 1, BJeLR viability -3, RN4220 kill 5.7, PrP 5UTR inh -75, Autofluor counter 10741, Mtb hypoxia rep 14 and Mtb hypoxia rep growth 8.
For O=C1NC(=O)N(Cc2ccccc2Cl)C(=O)/C1=C/N1CCOCC1 the results were Sa ugtP lethal -9, BJeLR viability -1, RN4220 kill 2.4, PrP 5UTR inh -31, Autofluor counter 23148*, Mtb hypoxia rep 8 and Mtb hypoxia rep growth 4.
Screening Cc1ccc(C(=O)NC(=C(Cl)Cl)S(=O)(=O)c2ccc(C)cc2)cc1 returned Sa ugtP lethal -5, BJeLR viability 10, RN4220 kill -4.6, PrP 5UTR inh -39, Autofluor counter 2404, Mtb hypoxia rep -1 and Mtb hypoxia rep growth -4.
Screening Cc1nc(NC(=O)c2cc3c(s2)CCCCC3)sc1C(=O)N(C)C returned Sa ugtP lethal -4, BJeLR viability 7, RN4220 kill 4.7, PrP 5UTR inh -68, Autofluor counter 10711, Mtb hypoxia rep -7 and Mtb hypoxia rep growth 8.
COCCN(C(=O)CSc1n[nH]c(-c2ccccc2)n1)c1c(N)n(CC(C)C)c(=O)[nH]c1=O was read as Sa ugtP lethal 9, BJeLR viability 7, RN4220 kill 2.8, PrP 5UTR inh -25, Autofluor counter 3986, Mtb hypoxia rep 8 and Mtb hypoxia rep growth 3.
`COCC1CCN(C(=O)c2cc(COc3ccc4ncccc4c3)on2)CC1` gave Sa ugtP lethal 6, BJeLR viability 2, RN4220 kill 5.9, PrP 5UTR inh -16, Autofluor counter 4159, Mtb hypoxia rep -7 and Mtb hypoxia rep growth 7.
CC(C)NC(=O)Cn1nnc(-c2ccc(Cl)cc2)n1 was read as Sa ugtP lethal 6, BJeLR viability -1, RN4220 kill 2.8, PrP 5UTR inh -23, Autofluor counter 10735, Mtb hypoxia rep 5 and Mtb hypoxia rep growth -3.
`Cc1ccc2nc(N3CCOCC3)c(C=O)c(=O)n2c1` gave Sa ugtP lethal 5, BJeLR viability -7, RN4220 kill 3.9, PrP 5UTR inh -26, Autofluor counter 4982, Mtb hypoxia rep 3 and Mtb hypoxia rep growth 7.

Source: PubChem (several laboratories)
